S aureus helic = S. aureus DNA helicase inhibition; AID 485395; purified S. aureus helicase, fluorescence unwinding assay; about half of the hits fall short of the stated cut; hit rate 0.05% among 120,000; inhibition, %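 (tested at about 80 µM)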;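 active = both duplicates at 50% or more, or one of them with a favoured structure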;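 also: 0% = mean of negative control wells and 100% = mean of positive control wells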
MgrA-DNA mod = S. aureus MgrA-DNA binding modulation; fluorescence polarization; inhibition, %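 (about 10 µg/mL by stock and volumes)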; hit rate 0.13% among 84,000; AID 602314;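 active = above 50% in either of two replicates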;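 also: 0% = protein plus DNA without compound and 100% = DNA alone without protein; higher means less MgrA bound to DNA so lower polarization; one replicate is shown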
* = called active by the depositor; · = not tested or not shown; & = joins results of further samples.

SMILES	S aureus helic	MgrA-DNA mod
Cc1ccc(-c2nc(Nc3ccc(C)c(Cl)c3)sc2CC(=O)O)cc1	8	1.2
FC(F)(F)c1cc(Nc2ccccc2)nc(-c2ccccn2)n1	·	1.7
CS(=O)(=O)NC12CC3CC(CC(C3)C1)C2	3	5.9
Fc1ccc(NC(=S)N2CCc3ccccc32)cc1	-1	-1.8
CC(=O)N1c2ccc(S(=O)(=O)N3CCC(C(=O)NCCC4=CCCCC4)CC3)cc2CC1C (stereo unspecified)	-13	·
CCOC(=O)c1c(C)[nH]c(C(=O)Cn2nnc(-c3ccccc3)n2)c1C	-16	·
Cc1cc(=O)oc2c1c(C)nn2CN1CCN(C)CC1	6	·
O=S1(=O)C=Cc2ccccc21	·	0.6
COc1ccccc1Cn1c(=O)c2ccccc2n2c(SCC(=O)N3CCOCC3)nnc12	-1	·
CCC(=O)Nc1cc(C)c2c(=O)oc3ccccc3c2n1	-29	·
O=C(NCc1ccco1)C1CCCN1S(=O)(=O)c1ccc2ccccc2c1 (stereo unspecified)	-1	-3.0
CC1CCN(C(=O)/C(=C\c2ccccc2)NC(=O)c2ccccc2)CC1	-10	·
O=C(NC1CCCC1)c1ccccc1-c1nc(-c2ccc(Cl)cc2)no1	9	2.4
CCCCn1ccnc1C(=O)c1cc(F)c(F)c(F)c1F	0	-14
O=C(NC(=S)Nc1ccccc1O)c1ccccc1	0	·
O=C(NCc1ccccc1)c1cccnc1	11	·
CCc1ccc2c(CC(=O)Nc3ccc(N4CCOCC4)cc3)coc2c1	10	·
O=C(NC1CC1)c1ccccc1NS(=O)(=O)c1ccc(F)cc1	-16	2.6
Cn1c(NC(=O)c2cccs2)c(-c2cccs2)c(=O)c2ccccc21	2	·
COc1ccc(N2CCN(C(=O)COc3ccccc3-c3nnc(-c4ccccc4)o3)CC2)cc1	-16	·
Cc1cc(NS(=O)(=O)c2ccc(NC(=O)c3cc(-c4ccc(C)o4)nc4ccccc34)cc2)nc(C)n1	·	6.7
OC(CSc1ccccc1)CN1CCN(c2ccc(C(F)(F)F)cn2)CC1 (stereo unspecified)	·	2.0
CCN(CC)C(=S)NC(=O)c1ccccc1	5	·
O=C1OC(N2CCCC2)c2ccccc21 (stereo unspecified)	-2	·
CC(C)Cn1cnc2c1c(=O)[nH]c(=O)n2CC(C)C	1	·
CCN=C1S/C(=C\c2ccc(O)c(OCC)c2)C(=O)N1CC	0	·
COc1ccc(-n2c(-c3ccc(C(C)(C)C)cc3)n[nH]c2=S)cc1	-4	1.8
COC(=O)C(Cc1c[nH]c2ccccc12)NS(=O)(=O)c1ccc(CNC(=O)c2ccccc2)s1 (stereo unspecified)	·	0.7
CCOC(=O)CSc1ncc(-c2ccc(Cl)cc2)[nH]1	14	·
CC(=O)O/N=C(\N)c1ccc(Br)cc1	6	-2.8
O/N=C/c1cnc(-c2ccccc2)[nH]1	·	-3.2
O=c1c2oc3ccccc3c2n(Cc2ccc(F)cc2)c(=O)n1Cc1ccc2c(c1)OCO2	19	·
CC(=O)NNc1ccc2nnc(-c3ccccc3)n2n1	11	·
COC(=O)C1=C(C)N=c2s/c(=C\c3cc(Br)ccc3OC(C)=O)c(=O)n2C1c1cccs1 (stereo unspecified)	·	-0.2
Cc1ccc2nc(SCC(=O)O)[nH]c2c1	20	-3.2
CCC1CCCCN1C(=O)c1cc(-c2ccc(OC)c(OC)c2)on1 (stereo unspecified)	37	·
COC(=O)c1ccc(C(c2c(O)ccc3ccccc23)N2CCOCC2)cc1 (stereo unspecified)	-2	·
O=c1c2ccccc2nc2c3ccccc3c(NCCO)nn12	33	·
CC(C)Cn1cc(NC(=O)NCc2ccccn2)c2ccccc2c1=O	5	·
CCOC(=O)c1c(Cl)c2ccccc2oc1=O	·	-1.1
O=C(O)CCCN=C(c1ccc(Cl)cc1)c1cc(F)ccc1O	-3	2.0
C=CC(=O)Nc1cc(C(=O)OC)ccc1C(=O)OC	-9	·
CS(=O)(=O)N1CCN(c2ccc(NC(=O)c3ccc4c(c3)OCO4)cc2)CC1	7	-3.0
CC1(Cc2cn(CCC(=O)O)c3ccccc23)OCCO1	-29	-0.8
C/C(=N\Oc1nc(-c2ccccc2)ns1)c1cccs1	-12	·
CCNC(=S)Nc1cccc(NC(=O)c2ccccc2O)c1	19	·
O=C1NC(=Nc2ccccc2)S/C1=C/c1cc2c(cc1Br)OCO2	·	1.1
CCOC(=O)CC1=C(C(=O)OCC)C(c2c(F)cccc2Cl)C(C#N)=C(N)O1 (stereo unspecified)	·	0.2
O=C(O)CN1C(=O)/C(=C\c2ccsc2)SC1=S	11	-1.6
COc1cccc(N2C(=O)/C(=C/C=C/c3ccco3)C(=O)NC2=S)c1	-19	86*
O=C(CN1C(=O)c2cccc3cccc1c23)N1CCCCC1	11	·
CCc1cc2c(cc3c(=O)n(CC(=O)NC(C)c4ccc5c(c4)OCCO5)nc(CC)n32)s1 (stereo unspecified)	-1	-1.0
CCC(=O)Nc1ccc2c(c1)ncn2C	6	-2.3
O=C(Nc1ccccc1-c1ccccc1)c1cccs1	·	-1.1
CCn1c(SCC(=O)Nc2ccccc2)nc2c(c1=O)SCC2	39	·
CN(Cc1ccccc1)C(=O)COC(=O)C1CC2C=CC1C2 (stereo unspecified)	-12	1.8
CN(C)CCN1C(=O)C(O)=C(C(=O)c2cc3ccccc3o2)C1c1ccccc1 (stereo unspecified)	20	·
O=C(CSc1nnc(-c2ccc(Cl)cc2)n1CC1CCCO1)Nc1ccc2c(c1)OCCO2 (stereo unspecified)	10	·
Nc1ccc(C(=O)OCC(=O)NC23CC4CC(CC(C4)C2)C3)cc1	-33	-2.1
N#CC1=C(SCC(=O)Nc2ccc(Br)cc2)NC(=O)CC1c1ccc(O)cc1 (stereo unspecified)	·	3.2

(next part)
SMILES	S aureus helic	MgrA-DNA mod
Cc1ccc(N2C(N)=C(C#N)C(c3cccnc3)C3=C2CC(C)(C)CC3=O)cc1 (stereo unspecified)	12	-1.2
CCCC(C)C(=O)Nc1nnc(C(C)C)s1 (stereo unspecified)	14	8.2
CCOc1ccc(CNc2ccc(N3CCOCC3)cc2)cc1OC	6	-2.6
O=C(O)CC(c1cccc(O)c1)N1Cc2ccccc2C1=O (stereo unspecified)	·	-3.3
CCOC(=O)c1sc(SC(C)CC)c(C#N)c1-c1ccc(Cl)cc1 (stereo unspecified)	·	-0.1
CCCCN(C)C(=O)c1cc2cc3ccc(C)cc3nc2s1	5	·
CCCNC(=O)c1ccc(-n2c(=S)[nH]c3ccccc3c2=O)cc1	4	-1.1
CCC(Oc1ccc2c(c1)OCO2)C(=O)O (stereo unspecified)	-24	-1.9
Cn1c2ccccc2c2cc(C(=O)N/N=C/c3ccc(-c4ccc(S(N)(=O)=O)cc4)o3)sc21	10	·
CCOC(=O)/C=C1\SCC(=O)N1CCOC(=O)c1cc(Cl)c(N)cc1OC	11	·
CS(=O)(=O)N1CCN=C1SCc1cccc(F)c1	14	·
O=C1c2ccccc2C(=O)C1(CO)c1ccccc1	2	1.0
O=C(Nc1ccccc1OC(F)F)C1(c2ccccc2)CC1	-8	·
COc1cc(Cl)c(C)cc1NC(=S)N(Cc1cccnc1)Cc1ccco1	6	·
CC(C)c1ccc(-c2c(C#N)c(N)nc3c2CCC3)cc1	7	·
CCCC(C(=O)O)N1C(=O)/C(=C/c2ccc(O)c(OCC)c2)SC1=S (stereo unspecified)	-45	·
CCN(CC)N=Nc1ccc(C(=O)O)cc1	16	13
CCn1c(SCC(=O)Nc2c(Cl)cc(S(N)(=O)=O)cc2Cl)nc2ccccc21	-8	·
COc1ccc(CC(CN)c2ccccc2)cc1 (stereo unspecified)	-17	3.1
Cc1csc2c(SCC(=O)NN)ncnc12	·	0.0
Cc1c(O)ccc2c(=O)c(-c3ccc(F)cc3)c(C(F)(F)F)oc12	18	·
Cc1cc(C)c(S(=O)(=O)Nc2cc(SCC(=O)O)c(O)c3ccccc23)cc1C	-21	·
COc1ccc2cc(Br)ccc2c1CC(=O)N1CCOCC1	9	-2.6
Cc1cc2c(cn1)C(CCC#N)(CCC#N)c1ccccc1-2	14	-3.0
COC(=O)C1=C(C)NC(=S)NC1c1ccccc1 (stereo unspecified)	6	·
CN1C(=O)/C(=C/c2c(N(C)C)nc3ccccn3c2=O)SC1=S	-37	-0.5
Clc1ccc(SCc2ccsc2-c2ncns2)cc1	·	-1.3
CC1CN(C(=O)c2cc(F)c(F)cc2Cl)CC(C)O1 (stereo unspecified)	9	0.1
COC(=O)C1=C(C)Nc2c(c(=O)n(C)c(=O)n2C)C1c1ccc(C)cc1 (stereo unspecified)	-2	·
CN(C)CC1CCCCC1OC(=O)c1ccc(Br)o1 (stereo unspecified)	-10	0.8
COc1ccc(OCCOc2cccc(N)c2)cc1	11	-0.1
CCOC(=O)c1sc(SCCO)c2c1CC(C)(C)CC2=O	·	-1.5
COCc1nc2ccccc2n1CCOc1ccccc1	-31	·
CC(=O)Nc1ncc2c(n1)CC(c1ccc(Cl)cc1)CC2=O (stereo unspecified)	5	-0.1
O=C(O)C(Cc1ccccc1)N1Cc2ccccc2C1=O (stereo unspecified)	·	-0.5
CC1(C)CC(=O)C2=C(C1)NC(Nc1nc3ccccc3o1)=NC2c1ccccn1 (stereo unspecified)	2	0.2
Brc1cccc(-c2nnc(Nc3ccccc3)o2)c1	13	·
O=S1(=O)C=C(CSc2cccs2)c2cc(Cl)ccc21	·	6.5
COc1ccc(-c2cc(=O)c3cc(OCC(N)=O)ccc3o2)cc1	5	·
COc1ccc2c(c1)cc1n2CCN2CCCN=C12	30	·
Cc1ccc(C(=O)Nc2nnc(-c3ccccc3)s2)cc1	8	·
O=S(=O)(Nc1ccc(N2CCCCC2)cc1)c1ccc(-c2ccon2)s1	·	-0.5
COc1ccc(Cl)c(OC)c1C(=O)NC(=O)Nc1c(C)cccc1C	·	0.2
C=C(C)CN(CC)Cc1ccc(O)cc1	12	0.8
Cc1nc2c(cnn2-c2ccccc2)c(=O)n1NC(=O)Nc1ccc(Cl)c(Cl)c1	·	-1.1
CCCN1CCC(NC(=S)Nc2ccc3c(c2)OCO3)CC1	4	-3.5
c1ccc(-c2cc3c(NC4CC4)ncnc3s2)cc1	-8	·
Cc1ccc(C(=O)OCC(=O)NC2CCCCC2C)cc1 (stereo unspecified)	1	·
O=C(CCC(=O)N1CCSc2ccccc21)NCC1CCCO1 (stereo unspecified)	-5	0.9
Cn1c(=O)c2c(SCC(=O)NCC3CCCO3)nc(-c3ccccc3)nc2n(C)c1=O (stereo unspecified)	2	·
CSc1nc(N)c(C#N)c(C(C)C)c1C#N	5	-0.1
CCN(CC)S(=O)C12CC3CC(CC(C3)C1)C2 (stereo unspecified)	2	·
CCOC(=O)N1CCC(=NNc2ncc(C(F)(F)F)cc2Cl)CC1	3	·
COc1ccc(OCCOC(=O)c2cccc(C#N)c2)cc1	0	·
CCCCn1cnc2sc3c(c2c1=N)CCCC3	6	·
O=c1c2ccc(-c3nnc(SCCCOc4ccccc4)o3)cc2nc2n1CCCCC2	-5	·
CN1CCN(c2nc(-c3cc4ccccc4o3)cs2)CC1	-8	·
O=C(NC1CCCCNC1=O)c1cccnc1Oc1ccc(Cl)cc1 (stereo unspecified)	·	0.6
O=C(Nc1ccccc1)Nc1nnc(C(F)(F)F)s1	·	-8.4
CC(=O)Nc1ccc(S(=O)(=O)NCCC(=O)Nc2ccc3c(c2)OC2(CCCC2)O3)cc1	-19	·

Going on with the list:
SMILES	S aureus helic	MgrA-DNA mod
C=CCNC(=O)c1cc2c(=O)n3cccc(C)c3nc2n(CC2CCCO2)c1=N (stereo unspecified)	31	3.1
CC1(C)CC(=O)C=C(NCc2ccc(S(N)(=O)=O)cc2)C1	0	2.8
Cc1ccc(NC(=O)c2c(-c3c(Cl)cccc3Cl)noc2C)cc1[N+](=O)[O-]	·	-0.5
COc1c2c(nc3ccccc13)OC(C(C)(O)CO)C2 (stereo unspecified)	9	-0.1&0.4
Cc1cc(C)n(-c2nc3c(c(C(F)(F)F)n2)CC(C)CC3)n1 (stereo unspecified)	13	·
CSc1ccccc1C(=O)NCCCN1CCOCC1	17	0.3
O=C(NC(Cc1ccccc1)C(=O)O)c1ccccc1 (stereo unspecified)	10	·
O=C1OCc2ccc(NC(=O)C3CCCCC3)cc21	7	-2.0
CC(=O)Nc1ccc(I)cc1C(=O)O	2	0.9
Nc1ccc2nn(-c3ccc(Cl)cc3)nc2c1	-6	·

Reprinted at random: seven records from the list
SMILES	S aureus helic	MgrA-DNA mod
CC(=O)O/N=C(\N)c1ccc(Br)cc1	6	-2.8
O=S1(=O)C=C(CSc2cccs2)c2cc(Cl)ccc21	·	6.5
CN1C(=O)/C(=C/c2c(N(C)C)nc3ccccn3c2=O)SC1=S	-37	-0.5
O=c1c2ccc(-c3nnc(SCCCOc4ccccc4)o3)cc2nc2n1CCCCC2	-5	·
O=S1(=O)C=Cc2ccccc21	·	0.6
Fc1ccc(NC(=S)N2CCc3ccccc32)cc1	-1	-1.8
COc1cc(Cl)c(C)cc1NC(=S)N(Cc1cccnc1)Cc1ccco1	6	·

Rewritten field by field: 3 of the compounds above.
Cc1csc2c(SCC(=O)NN)ncnc12
  S aureus helic: ·
  MgrA-DNA mod: 0.0

O=C(Nc1ccccc1)Nc1nnc(C(F)(F)F)s1
  S aureus helic: ·
  MgrA-DNA mod: -8.4

COC(=O)C(Cc1c[nH]c2ccccc12)NS(=O)(=O)c1ccc(CNC(=O)c2ccccc2)s1 (stereo unspecified)
  S aureus helic: ·
  MgrA-DNA mod: 0.7

Only part of the results is shown (hit frequency here may not be typical).
